From PubChem BioAssay
Rango-impB inh = Rango-importin beta binding inhibition; Rango CFP/YFP FRET sensor + importin beta, 45 min; 0.031% of 340,000 active; AID 540263; Q14974; Potency, µM (top dose mostly 92.2 µM), inactives show at the highest dose inhibition of complex formation; active = rising FRET ratio curve, often small or poorly fitted; inconclusive = mostly compound fluorescence or quenching in the first reads; inactive = flat curves in all reads;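 further: potency means the concentration at half of the fitted maximal effect; 0% = DMSO wells and 100% = buffer wells lacking importin beta; nearly all actives have a fitted effect of over 15% in size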
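FRET biosensor (snurportin 1 IBB flanked by EYFP and cerulean), 50 nM, with compound 5 min, then 0.125 microM importin beta in PBS, 1 mM DTT, 0.02% Tween-20, 0.1% BSA. CFP/YFP ratio read after 45 min at room temperature; pre-read flags interference.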
GLA inh pH 4.5 = inhibitors of human alpha-galactosidase A at pH 4.5. 230,000 tested, under 10 active. purified enzyme, 4-MU-alpha-Gal fluorescence, pH 4.5. activity change, negative = inhibition, % at 105 µM. P06280; inconclusive = small, poorly fitted or top-dose-only inhibition, or a rising curve; inactive = flat fitted curve, though single readings scatter; no compound was filed as active;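 further: 0% = full activity with enzyme and -100% = basal without enzyme; dose as in the result columns while the protocol names 77 µM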
Target sequence (P06280 whole entry, looked up): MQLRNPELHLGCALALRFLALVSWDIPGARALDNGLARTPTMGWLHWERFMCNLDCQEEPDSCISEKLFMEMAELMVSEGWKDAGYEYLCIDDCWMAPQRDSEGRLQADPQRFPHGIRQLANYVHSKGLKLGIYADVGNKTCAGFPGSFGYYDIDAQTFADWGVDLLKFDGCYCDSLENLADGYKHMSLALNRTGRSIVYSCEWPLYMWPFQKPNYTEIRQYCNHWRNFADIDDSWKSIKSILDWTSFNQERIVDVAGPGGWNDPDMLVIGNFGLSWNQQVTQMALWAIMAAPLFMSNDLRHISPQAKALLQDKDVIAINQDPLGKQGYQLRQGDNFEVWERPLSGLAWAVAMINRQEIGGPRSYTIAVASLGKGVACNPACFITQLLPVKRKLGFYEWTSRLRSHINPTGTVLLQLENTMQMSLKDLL
Rango release inh = prevents RanGTP from dissociating the Rango-importin beta complex | O95149+P62826 | 0.071% of 340,000 active | Biochemical FRET Rango-importin beta, RanGTP-induced dissociation | Potency, µM (titrated, usually from 46.1 µM), inactives show top-dose activity change, negative = inhibition; active means falling FRET ratio curve, often poorly fitted, with flat reads before Ran was added; inconclusive means other falling curves, or compound fluorescence or quenching; inactive means flat or rising ratio curve;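 further: potency means the concentration at half of the fitted maximal effect; % of control where 0% means no effect; nearly all actives have a fitted effect of over 45% in size; -100% = wells without RanGTP and RCC1; the record marks most hits as doubtful in a second field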
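Rango FRET biosensor (snurportin-1 IBB flanked by N-terminal EYFP and C-terminal CFP10) at 0.1 uM, with 0.25 uM importin beta in PBS, 1mM DTT, 0.02% Tween-20, 0.1% BSA. 0.6 uM Ran, 2mM GTP and 0.2 uM RCC1 were then added for 45 min at room temperature. Inhibition read as loss of FRET rise.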
miR-21 FLuc = miR-21 reporter, rising signal | HeLa miR-21 FLuc reporter, luciferase, 48 h | Potency, µM (doses to about 38.3 µM), inactives show top-dose reporter change, positive = more light | 340,000 tested, under 10 active | AID 2288; active = well fitted rising curve with a large enough effect; inconclusive = small, poorly fitted or top-dose-only effect; inactive = no such curve, though single readings can be large or run the other way;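 further: % of control where 0% means no effect; miR-21 action dims this reporter so a rising signal means less miR-21 action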
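Compounds were titrated across several concentrations (up to approximately 40 uM) and incubated 48 hours with HeLa miR-21-FLuc reporter cells (miR-21 target sequence downstream of FLuc, endogenous miR-21). Readout was firefly luciferase luminescence after lytic detection reagent.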
The depositor's hits bear a star; ? = inconclusive; nt = not tested or not shown; & = joins results of further samples; [ ] = another dose, or the depositor's remark. These rows are one share of the data (hit frequency here may not be typical).

SMILES	Rango-impB inh	GLA inh pH 4.5	Rango release inh	miR-21 FLuc
CCOc1cccc2cc(C(=O)NCc3ccc(F)cc3)c(=N)oc12	-1.6%	nt	12%	0%
CCCc1cc(C(=O)NCC(C)C)no1	1.3%	-1	14%	-36%
Cc1cccc(NC(=O)c2ccc(CN3CCc4ccccc4C3)cc2)c1C	-3.1%	2	4%	-4%
CC1CCCN(CCSc2ccc(Cl)cc2)C1 (stereo not given)	0.3%	-14	4%	-5%
CC(=O)c1ccc(NS(=O)(=O)c2ccc(C)cc2)cc1	-5.2%	2	1%	-16%
CC1=C([N+](=O)[O-])C(c2cccc(Br)c2)C2=C(N1)c1ccccc1C2=O (stereo not given)	-0.5%	-3	9%	23%
COc1cccc(C2c3[nH]c4ccccc4c3C[C@H]3C(=O)N(CCCOC(C)C)CC(=O)N23)c1 (stereo not given in full)	-1.8%	nt	8%	7%
O=C(NCCN1CCN(Cc2ccccc2)CC1)C1c2ccccc2C(=O)N2CCc3ccccc3C12 (stereo not given)	-1.3%	3	15%	-7%
O=C(Cc1ccccc1F)Nc1cc(S(=O)(=O)N2CCOCC2)ccc1N1CCCC1	-0.7%	nt	-8%	nt
O=C1C2CCCN2C(=O)N1CCCCN1CCN(c2ccccc2)CC1 (stereo not given)	-4.0%	7	1%	-5%
CC(=O)C1=C(O)C(=O)N(CCCO)C1c1ccccc1 (stereo not given)	1.8%	-6	3%	1%
COc1ccc(CCN2C(=NC(C)=O)SC3CS(=O)(=O)CC32)cc1OC (stereo not given)	0.1%	2	-6%	-2%
CCNC(=O)C(=O)Nc1cc2c3c(c1)CCC(=O)N3CCC2	-1.9%	nt	-24%	5%
COC(=O)[C@@H](NC(=O)O[C@H]1C(=O)c2ccc(OC)cc2O[C@@H]1c1ccc2c(c1)OCO2)C(C)C	nt	-3&-15	nt	-19%
CCOC(=O)C1CCN(C(=O)Nc2ccc(Cl)cc2)CC1	-0.1%	5	0%	-11%
Clc1nc(NCCN2CCOCC2)nc(NCc2ccccc2)n1	2.3%	2[21.1 µM]	17%	-2%
COc1cc(CNC(=O)c2cc(C(=O)NCc3cc(OC)cc(OC)c3)n(C)n2)cc(OC)c1	-1.6%	nt	-2%	nt
COc1ccc2c(C)c(C)c(=O)oc2c1OC	-2.7%	5	-7%	-15%
O=C(OCC#CCSc1nnc(-c2ccncc2)o1)c1sc2ccccc2c1Cl	1.5%	1	20%	-3%
O=C(O)c1ccc(-c2nc(-c3ccc(Cl)c(Cl)c3)cs2)cc1	-0.7%	-1	0%	-20%
COc1ccccc1NC(=O)c1c(C)nn(-c2ccccc2)c1Cl	5.1%	nt	1%	-13%
O=C(NCC1CCCO1)c1cccc(Oc2ccccc2)c1 (stereo not given)	-4.3%	nt	-3%	-43%
CCn1ccc(=N)cc1	-2.2%	6	-7%	-2%
O=C(C[N+]1(CC#Cc2ccccc2)CCOCC1)c1ccc(Cl)cc1	-3.2%	7	-4%	-1%
COCCOC(=O)c1c(C)nc(SCC(=O)Nc2cccc3ccccc23)c(C#N)c1-c1ccco1	1.4%	8	-13%	6%
NC(=S)NNC(=O)Nc1ccc(Cl)c(Cl)c1	-3.2%	4	1%	7%
Cc1ccc(-n2c(C)cc(C3=NNC(=NC4CC4)SC3)c2C)cc1C	4.7%	-1	?	-5%
C=C1CCN([C@@H](CC(C)C)C(=O)NCc2ccc(OC)cc2)S(=O)(=O)c2ccccc21	-1.7%	nt	1%	nt
Oc1c(Br)cc(Br)cc1CNn1cnnc1	0.2%	nt	5%	-1%
O=C1CCCN1CCCn1cnc2c([nH]c3ccc(F)cc32)c1=O	0.5%	nt	7%	-18%
COc1ccc(NC(=O)C(c2ccccc2)N2CCN(c3ccccn3)CC2)cc1Cl (stereo not given)	-0.7%	-2	8%	-1%
COC(=O)c1ccc(CSc2nc3ccccc3o2)cc1	1.9%	-5	9%	-11%
Cc1cc(C)n2nc(SCC(=O)N3CCC(C(=O)O)CC3)nc2n1	-0.3%	nt	-4%	nt
Cc1ccc2c(c1)N(CC(=O)N1CCCc3ccccc31)C(=O)CO2	1.4%	-6	0%	-15%
Cc1cccc(CN2CCCC(C(=O)c3ccc4c5c(cccc35)CC4)C2)n1 (stereo not given)	3.2%	-10	5%	9%
CC(NCc1ccccc1O)C12CC3CC(CC(C3)C1)C2 (stereo not given)	-0.6%	nt	37%	2%
Cc1ccnc(NC(=O)c2ccc(COc3c(F)c(F)cc(F)c3F)o2)c1	3.4%	nt	-12%	-3%
CN(C)c1cccc2c1c(NC(=O)c1ccc(Cl)cc1)nn2C	-1.6%	-11	1%	-5%
COc1ccc(CN(C)Cc2cc(=O)n3ccsc3n2)c(OC)c1OC	1.3%	3	7%	-1%
NC(=O)C1CCN(C(=O)Cc2ccc(-c3ccccc3)cc2)CC1	6.7%	nt	-10%	-10%
CN(C)N1C(N)=C(C#N)C(c2ccccc2Cl)C2=C1CCCC2=O (stereo not given)	-2.0%	nt	2%	-2%
CCOc1cc(/C=C2/NC(=O)N(CC(=O)Nc3cccc(C)c3)C2=O)ccc1OCC(N)=O	-0.9%	-3	-10%	-1%
CS(=O)(=O)N(CC(=O)NC1CCCC1)Cc1ccc(F)cc1	3.2%	-7	-5%	0%
O=C(/C=C/c1ccc2c(c1)OCO2)NCc1ccc(F)cc1	-1.1%	nt	-6%	-11%
CCOC(=O)c1c(N2C(=O)C3C4C=CC(O4)C3C2=O)sc2c1CCCC2 (stereo not given)	-4.3%	3	0%	13%

Entries of single compounds from above:
CS(=O)(=O)N(CC(=O)NC1CCCC1)Cc1ccc(F)cc1 is entered as Rango-impB inh: 3.2%; GLA inh pH 4.5: -7; Rango release inh: -5%; miR-21 FLuc: 0%
Clc1nc(NCCN2CCOCC2)nc(NCc2ccccc2)n1 is entered as Rango-impB inh: 2.3%; GLA inh pH 4.5: 2[21.1 µM]; Rango release inh: 17%; miR-21 FLuc: -2%
COc1ccc(CN(C)Cc2cc(=O)n3ccsc3n2)c(OC)c1OC is entered as Rango-impB inh: 1.3%; GLA inh pH 4.5: 3; Rango release inh: 7%; miR-21 FLuc: -1%

Remaining list, next part:
SMILES	Rango-impB inh	GLA inh pH 4.5	Rango release inh	miR-21 FLuc
CC(C)n1cnnc1SCC(=O)NC(=O)c1ccccc1	-0.2%	nt	-4%	nt
Fc1ccc(COc2ccc(Br)cc2CNCc2ccncc2)cc1	0.1%	-1	1%	1%
CCOC(=O)c1nn(-c2ccccc2)c(=O)cc1OCC(=O)Nc1cc(C)ccc1C	-3.1%	nt	1%	nt
CCc1cc2c(=O)n(-c3ccccc3)cnc2s1	-1.7%	1	-3%	-61%
COc1cccc(C2c3c(-c4ccccc4)n[nH]c3C(=O)N2c2ccc(C(=O)O)cc2)c1 (stereo not given)	0.9%	-7	-16%	-5%
Cc1ccc(S(=O)(=O)NCC(=O)N2CCc3ccccc3C2)cc1	1.5%	nt	-9%	-2%
COC(=O)c1sc(N)c(C(=O)OC)c1CSc1nnnn1C	0.3%	6	-3%	-3%
Cc1cc(=O)oc2cc(NC(=O)CCC(=O)O)ccc12	-1.1%	9	-17%	-7%
Cc1ccc(NS(=O)(=O)c2c(C(=O)N3CCCCCC3)c(C)n(C)c2C)cc1C	-2.0%	nt	-8%	-5%
Cn1c(=O)c2[nH]cnc2n(-c2ccccc2)c1=O	-3.4%	12	-15%	-23%
CCn1c(Cc2ccccc2)nnc1SC(C)C(=O)NC1CC1 (stereo not given)	0.7%	nt	9%	nt
Cc1ccc(NC(=S)N(CCCN2CCOCC2)Cc2cccs2)c(C)c1	-0.4%	-3	-4%	-15%
O=C(Cc1ccccc1)N1CCC(C(=O)N2CCN(c3ccc(F)cc3)CC2)CC1	-2.9%	10	-7%	1%
Cc1ccc(C(=O)O)cc1S(=O)(=O)N1CCCC1	4.6%	7	0%	-2%
O=C(O)c1ncsc1-c1ccccc1	0.5%	-17	16%	-1%
COc1ccc(Cc2nc3ccc(C(=O)NCC4COCCO4)cc3o2)cc1 (stereo not given)	5.7%	nt	-5%	-4%
Cc1ccc(NC(=O)c2cc(=O)[nH]c3ccccc23)cc1C	-4.4%	nt	-22%	-5%
Nc1c(C(=O)NCc2ccco2)c2nc3ccccc3nc2n1CCc1ccccc1	?	26	?	?
O=C(COC(=O)c1cccs1)Nc1nnc(-c2ccccc2)o1	0.6%	nt	0%	nt
C=CCn1c(=S)[nH]c2cc(C(=O)Nc3ccc(OC)c(OC)c3)ccc2c1=O	8.3%	nt	-15%	20%
OC(Cc1ccncc1)c1ccccc1Cl (stereo not given)	-2.3%	nt	-3%	nt
CCOc1ccccc1C(=O)NCC(=O)Nc1ncccc1C	-2.4%	nt	0%	nt
COc1cc(/C=N/NC(=O)c2cc(O)cc(O)c2)ccc1OC(=O)c1ccccc1	-3.2%	nt	-10%	-3%
C#CCOCCOCCOCCNc1nc(N2CCN(C(=O)[C@H]([C@@H](C)CC)n3cc([C@@H](N)Cc4ccc(O)cc4)nn3)CC2)nc(N2CCN(C(=O)[C@H](Cc3cc4ccccc4[nH]3)n3cc([C@@H](N)CC(C)C)nn3)CC2)n1	-0.7%	nt	-1%	nt
COc1ccc(-n2nnnc2SCC(=O)Nc2ccc3c(c2)OCCO3)c(OC)c1	0.9%	-10	6%	-6%
Cc1cc2oc(C(=O)Nc3ccc(S(=O)(=O)Nc4onc(C)c4C)cc3)cc(=O)c2cc1Cl	0.6%	-2	-1%	-6%
CC(Sc1nnc(N)s1)C(=O)Nc1nccs1 (stereo not given)	-0.6%	nt	1%	1%
Cc1cccc(OCCn2nc(C(=O)O)c3ccccc3c2=O)c1	-1.1%	-17	?	-5%
CCCCC1=NN(C(=O)c2ccncc2)C(O)(C(F)(F)F)C1 (stereo not given)	?	-5	11%	2%
O=C(Nc1cc(=O)[nH]c(=O)[nH]1)c1cc(Cl)ccc1Cl	1.6%	nt	-2%	20%
CCCC1=Nc2cc(C(=O)N3CCC(C(N)=O)CC3)ccc2Sc2ccccc21	2.7%	nt	8%	0%
C=CCNCCCCOc1c(Cl)cc(C)cc1Br	2.2%	-18	2%	5%
COCCSc1nnc(NC(=O)C2CC(=O)N(c3ccccc3)C2)s1 (stereo not given)	-0.1%	-8	1%	1%
COc1ccc(Br)cc1C(=O)NC(=S)Nc1cc(-c2nc3ccccc3[nH]2)ccc1C	0.7%	-8	-17%	-31%
NC(=O)C1CCN(C(=O)/C(=C/c2ccccc2)NC(=O)c2ccccc2)CC1	4.3%	nt	-9%	1%
CCCC1=C(C(=O)OCC)C(c2ccco2)C(C#N)=C(N)O1 (stereo not given)	3.4%	-8	-1%	2%
COc1cc2nc(CN3CCOCC3)n(CC(=O)NCC(F)(F)F)c(=O)c2cc1OC	-3.1%	1	1%	0%
CCN(C[C@H]1N[C@@](C)(C(=O)OC)[C@H]2C(=O)N(C)C(=O)[C@@H]12)C(=O)Nc1ccc(C(F)(F)F)cc1	0.2%	nt	3%	nt
CC1(C)CC(=O)C=C(NCc2ccncc2)C1	-0.1%	-1	11%	0%
Cc1ccc(NC(=O)C2C3C=CC4(O3)C2C(=O)N(CCCN2CCOCC2)C4C(=O)NC2CCCCC2)cc1Cl (stereo not given)	0.4%	nt	19%	0%
COc1ccc(C2(CNC(=O)/C=C\c3ccco3)CCCC2)cc1OC	-4.7%	4	0%	-13%
NC(N)=NS(=O)(=O)c1ccc(NC(=S)NC(=O)/C=C/c2ccccc2)cc1	5.4%	nt	9%	0%
COC(=O)[C@@]1(Cc2ccccc2)[C@@H]2C(=CC(=O)[C@H]2CC(=O)C(=O)N(C)C)CN1C(=O)c1ccccc1	8.1%	6&-8	7%	?
CCN1CCN(C(CNS(=O)(=O)c2ccc(C)cc2)c2ccccc2)CC1 (stereo not given)	0.6%	nt	-2%	-4%
Cc1ccc(C(=O)Oc2cccnc2)cc1[N+](=O)[O-]	1.3%	3	0%	-1%
Oc1ccc2ccc3[nH]cnc3c2c1	7.6%	0	3%	-19%
